AF4-AF9 inh: MLL-AF4/AF9 protein interaction inhibition; AlphaScreen, biotin-AF4 peptide binding to FLAG-AF9; 0.47% of 350,000 active; inhibition, % at 10 µM;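 active = every replicate reaching a set inhibition limit, whatever the replicate mean, cut at about 25% in these data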;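 note: 0% = plate neutral control median and 100% = total signal loss; the record names both 10 and 1 µM as test concentration; the first replicate is given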
Target sequence (P42568 whole entry, looked up): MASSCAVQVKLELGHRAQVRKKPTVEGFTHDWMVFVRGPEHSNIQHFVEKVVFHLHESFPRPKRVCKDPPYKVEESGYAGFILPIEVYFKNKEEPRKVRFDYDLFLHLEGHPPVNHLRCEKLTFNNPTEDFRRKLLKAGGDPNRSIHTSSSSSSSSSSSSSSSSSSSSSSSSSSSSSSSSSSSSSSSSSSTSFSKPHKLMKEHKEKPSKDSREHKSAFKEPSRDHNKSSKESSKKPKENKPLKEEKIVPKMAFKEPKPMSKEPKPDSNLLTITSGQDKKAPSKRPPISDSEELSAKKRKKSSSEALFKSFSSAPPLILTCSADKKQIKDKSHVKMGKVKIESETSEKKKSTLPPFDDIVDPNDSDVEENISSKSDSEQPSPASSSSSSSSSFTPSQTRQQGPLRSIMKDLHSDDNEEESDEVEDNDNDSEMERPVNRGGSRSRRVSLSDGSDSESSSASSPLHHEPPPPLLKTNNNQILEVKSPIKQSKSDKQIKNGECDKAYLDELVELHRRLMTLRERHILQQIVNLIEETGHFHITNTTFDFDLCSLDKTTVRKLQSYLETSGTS
rRNA inh HTS: inhibits bacterial ribosomal RNA function over humanized ribosomes; E. coli WT GFP vs humanized-ribosome RFP mutants, fluorescence, 24 h; stronger effect = lower value; DMSO median 0, no signal -100; GFP signal change (wild-type ribosome), % (no concentration beside the values); 1.6% of 350,000 active;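 active = significant combined selectivity score with lowered wild-type GFP, culture density cut under 30%, mutant RFP and density less affected; inactive = any of these conditions unmet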; note: one replicate is shown; some compounds called inactive have numbers as strong as hits
rRNA inh HTS OD600: second read-out of rRNA inh HTS, no call of its own (marks repeat the call); OD600 change, %; measured here: OD600 growth;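 optical density of the mix in the first replicate; 0 = DMSO median and -100 = no signal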
rRNA inh HTS RFP: also measured in rRNA inh HTS; calls as there; RFP signal change, %; measured here: RFP humanized mutant strains;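 first replicate; 0 = DMSO median and -100 = no signal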
* marks the source's active call; other numbers are inactive results; & = joins results of further samples.

SMILES	AF4-AF9 inh	rRNA inh HTS	rRNA inh HTS OD600	rRNA inh HTS RFP
CN1C(=O)c2cc(NC(=O)c3cnccn3)ccc2OC[C@H]2O[C@H](CC(=O)NCC3CC3)CC[C@H]21	-2.8	3.1	6.0	-0.8
O=C(NC1CCC1)[C@H]1[C@H](CO)[C@H]2Cn3c(ccc(-c4ccccc4)c3=O)[C@H]2N1CC1CC1	0.0	-4.6	-9.5	5.3
O=C(c1ccncc1)N1CC2(C1)[C@@H](c1ccccc1)[C@@H](CO)N2CC1CCOCC1	-0.7	1.7	12.8	0.2
O=C(C1CCOCC1)N1CC(=O)N2[C@H](C1)[C@@H](c1ccc(C#CC3CC3)cc1)[C@@H]2CO	-0.8	3.1	34.0	-1.5
Cc1ccc(-c2ccc(C3[C@@H]4CN(C(=O)Nc5ccc(C(F)(F)F)cc5)C[C@H]3N4)cc2)cc1 (some centres not stated)	1.2&-4.1	-60.0&-61.0	-70.4&-73.7	-15.2&-18.6
CC(=O)N(C)C[C@@H]1[C@H](c2ccc(-c3cccc(C#N)c3)cc2)[C@H](CO)N1C(C)=O	-2.5	-2.5	3.5	-1.4
C/C=C/c1ccccc1[C@@H]1[C@@H](C#N)N(c2nc(CC)cs2)[C@H]1CO	9.5	-8.1	-34.6	0.2
Cc1ccc(S(=O)(=O)N(C)C[C@H]2OCCCC[C@@H](C)Oc3ccc(NC(=O)NC(C)C)cc3C(=O)N([C@@H](C)CO)C[C@@H]2C)cc1	0.1	-2.3	0.5	0.3
CC(C)CC#Cc1ccc([C@@H]2[C@@H](CO)N3C(=O)CN(C(=O)c4cnccn4)C[C@H]23)cc1	1.2	2.8	-12.9	24.5
CCCNC(=O)[C@H]1[C@H](CO)[C@H]2Cn3c(ccc(C4=CCCCC4)c3=O)[C@H]2N1C(=O)c1cnccn1	-2.9	-0.8	7.2	-2.1
CC(C)NC(=O)NCC[C@@H]1CC[C@@H](NC(=O)c2ccc(F)cc2)[C@H](CO)O1	7.9	1.1	6.6	0.3
O=C(C[C@H]1C=C[C@H](NC(=O)Nc2ccccc2F)[C@@H](CO)O1)NCc1ccccc1	-4.3	0.2	5.0	-2.3
O=C(Cn1cc(COc2ccc(Cl)c(Cl)c2)nn1)NS(=O)(=O)c1ccccc1OC(F)(F)F	-1.7	4.9	-14.6	3.8
CC=Cc1ccc2n(c1=O)C[C@@H]1[C@@H](CO)[C@H](C(=O)NCC)N(Cc3ccccc3Cl)[C@H]21 (mixture of isomers)	-13.8	1.0	5.4	-2.8
CN(C)C(=O)c1ccc(-c2ccc([C@@H]3[C@@H](CO)N4C(=O)CN(C(=O)C5CC5)C[C@@H]34)cc2)cc1	-0.4	-6.8	1.5	1.2
CC=Cc1ccc2n(c1=O)C[C@H]1[C@H](CO)[C@@H](C(=O)NC3CCC3)N(CCC(F)(F)F)[C@@H]21 (mixture of isomers)	-0.6	-1.2	2.9	0.2
COCC#Cc1ccc([C@H]2[C@@H](CO)N3C(=O)CN(C(=O)C4CCC4)C[C@@H]23)cc1	-8.8	-0.6	12.9	-1.1
CCC(=O)N1[C@H](CO)[C@H](c2ccc(-c3ccccc3OC)cc2)[C@@H]1CNC(C)=O	-2.4	-1.2	9.1	-2.2
CCC(=O)N1CC2(C1)[C@H](c1ccccc1)[C@@H](CO)N2CC1CCCC1	-10.6	0.2	2.0	-0.8
CCC(=O)N[C@@H]1CC[C@@H](CC(=O)NCC2CC2)O[C@@H]1CO	-3.0	1.8	4.2	0.1
O=C(c1ccccc1)N1CC(=O)N2[C@H](CO)[C@H](c3ccc(C#Cc4ccccc4)cc3)[C@H]2C1	-1.6	-5.1	-38.9	1.8
COc1ccc(CN(C)C[C@@H]2Oc3ccc(NC(=O)NC(C)C)cc3C(=O)N([C@@H](C)CO)C[C@@H]2C)cc1	-2.1	2.7	-0.4	-1.1
C/C=C/c1ccc([C@@H]2[C@@H](CO)N(C(=O)CN(C)C)C23CN(C(=O)C2CCCCC2)C3)cc1	1.9	3.1	-5.8	4.1
COC(=O)c1ccc(CN2CC(=O)N3[C@H](CO)[C@@H](c4ccc(-c5cccnc5)cc4)[C@H]3C2)cc1	0.7	0.1	0.0	-2.2
CN1C(=O)c2cc(NC(=O)C3CC3)ccc2OC[C@@H]2O[C@@H](CC(=O)NCc3ccccc3F)CC[C@H]21	-4.2	2.5	17.4	-0.6
O=C(C1CCCCC1)N1CC(=O)N2[C@H](C1)[C@@H](c1ccc(Br)cc1)[C@@H]2CO	-2.9	0.4	-2.9	1.2
COc1cc(C(=O)N2CCN(S(=O)(=O)c3ccc(C(C)C)cc3)CC2)ccc1OCC(=O)N1CCOCC1	1.1	0.7	11.0	-0.5
CCC(=O)N1CC(=O)N2[C@H](C1)[C@@H](c1ccc(C#CC(C)C)cc1)[C@@H]2CO	-3.8	-2.3	-0.4	2.0
O=C(Cc1cccnc1)N1CC2(C1)[C@H](c1ccccc1)[C@@H](CO)N2C(=O)C1CCCC1	0.2	2.7	1.6	-3.0
CC(C)NC(=O)N1CC2(C1)[C@H](c1ccccc1)[C@@H](CO)N2C(=O)C1CCC1	-2.8	0.6	9.3	-2.6
CO[C@H]1CN(C)C(=O)c2cc(NS(=O)(=O)c3ccc(Cl)cc3)ccc2OC[C@H](C)N(C)C[C@@H]1C	-0.9	1.6	8.6	-1.4
COc1ccc(CN(C)C[C@H]2OCCCC[C@@H](C)Oc3ccc(NC(=O)c4ccccc4)cc3C(=O)N([C@@H](C)CO)C[C@H]2C)cc1	5.5	0.4	-0.6	-1.3
O=C(C[C@H]1C=C[C@@H](NC(=O)c2ccc3c(c2)OCO3)[C@@H](CO)O1)NCc1ccc(F)cc1	-15.5	-1.5	-0.7	-1.0
COc1ccc2c3c(n(C)c2c1)[C@@H](CO)N(C)CC31CCN(S(=O)(=O)c2cn(C)cn2)CC1	1.0	-2.7	-6.1	-7.8
CCCNC(=O)[C@H]1[C@H](CO)[C@H]2Cn3c(ccc(C4=CCCC4)c3=O)[C@@H]1N2S(C)(=O)=O	0.4	5.3	10.6	0.9
CCCNC(=O)[C@@H]1[C@@H](CO)[C@@H]2Cn3c(ccc(/C=C/c4ccccc4)c3=O)[C@@H]2N1CCC	-7.3	-3.0	-20.5	16.9
Cc1ccc(-c2ccccc2[C@H]2[C@@H](C#N)N(C(=O)NC3CCCC3)[C@H]2CO)cc1	-0.6	3.3	-23.6	-3.8
C/C=C/c1ccc([C@@H]2[C@@H](CO)N3C(=O)CN(C(=O)c4cnccn4)C[C@@H]23)cc1	-0.3	4.0	0.7	-1.3
Cc1ccccc1S(=O)(=O)N1[C@@H]2CNC[C@H]1C2c1ccc(-c2cncnc2)cc1 (some centres not stated)	-3.5&-3.4	1.3&4.6	1.7&0.3	-1.0&-2.5
C/C=C/c1ccc([C@H]2[C@@H](CO)N(C(C)=O)[C@H]2CN(C)S(=O)(=O)CC)cc1	-2.3	3.3	16.7	-3.7
CN1c2ccc(-c3ccc(F)cc3)cc2[C@H]2[C@H](CCN2C(=O)c2ccc(F)cc2)[C@@H]1CO	12.6	-3.6	-23.6	24.4
CN(C)C(=O)[C@H]1[C@H](CO)[C@H]2Cn3c(cccc3=O)[C@H]2N1C(=O)C1CCCC1	-5.3	5.2	8.3	-3.9
CO[C@H]1CN(C)C(=O)c2ccc(NC(=O)Nc3ccc4c(c3)OCO4)cc2OC[C@H](C)NC[C@H]1C	-3.7	9.6	5.1	0.1
O=C(C1CC1)N1CC(=O)N2[C@@H](CO)[C@H](c3ccc(C#Cc4cccc(F)c4)cc3)[C@@H]2C1	-1.9	0.1	-23.5	7.9
O=C(Nc1ccccc1)N1CC(=O)N2[C@H](C1)[C@H](c1ccc(C#CC3CC3)cc1)[C@@H]2CO	0.1	5.3	-8.7	-1.0
N#C[C@@H]1[C@@H](c2ccc(C#CC3CCCCC3)cc2)[C@H](CO)N1C(=O)Nc1ccc(F)cc1	2.3	-2.3	-11.2	0.8
CCCCN(C(=O)Cc1ccc(S(=O)(=O)N2CCOCC2)s1)c1c(N)n(CC(C)C)c(=O)[nH]c1=O	-0.4	15.6	10.0	3.3
CO[C@@H]1CN(C)C(=O)c2ccc(NC(=O)C3CC3)cc2OC[C@@H](C)N(CC2CCCC2)C[C@H]1C	0.5	-1.7	-5.3	1.7
O=C(Nc1cccc(F)c1)N1CC(=O)N2[C@H](CO)[C@H](c3ccc(-c4ccc(F)cc4)cc3)[C@@H]2C1	-3.4	-48.5	-67.8	0.9
COCC#Cc1ccc([C@H]2[C@@H](CO)N3C(=O)CN(C(=O)C4CCCC4)C[C@H]23)cc1	-1.4	4.6	6.8	2.4
C[C@@H]1CCCCO[C@@H](CN(C)Cc2ccc(C(=O)O)cc2)[C@H](C)CN([C@H](C)CO)C(=O)c2cc(NC(=O)Nc3ccc(F)cc3)ccc2O1	0.8	-2.4	0.8	1.2
COc1ccc(NC(=O)N(C)C[C@H]2OCCCC[C@@H](C)Oc3ccc(NS(=O)(=O)c4ccc(C)cc4)cc3C(=O)N([C@H](C)CO)C[C@@H]2C)cc1	1.5	1.8	1.4	-1.2
C[C@@H]1CCCCO[C@H](CN(C)S(=O)(=O)c2cn(C)cn2)[C@H](C)CN([C@H](C)CO)C(=O)c2cc(NS(=O)(=O)c3ccccc3)ccc2O1	-1.3	-3.6	-2.7	-1.6
O=C(c1cccc(F)c1)N1CC(=O)N2[C@H](CO)[C@@H](c3ccc(C#Cc4ccc(F)cc4)cc3)[C@H]2C1	-0.2	-43.5	-57.5	2.3
Cc1noc(C)c1NC(=O)N(C)C[C@@H]1Oc2ccc(NC(=O)CCC(F)(F)F)cc2C(=O)N([C@H](C)CO)C[C@@H]1C	-2.3	1.2	-5.6	-1.3
O=C([C@@H]1N[C@@H]2c3ccc(C4=CCCCC4)c(=O)n3C[C@@H]2[C@H]1CO)N1CCc2ccccc2C1	0.9	-10.3	-19.5	-0.3
CCCN1[C@@H]2c3ccc(-c4cccnc4)c(=O)n3C[C@H]1[C@H](CO)[C@H]2C(=O)NC1CCCC1	-1.2	3.6	10.1	-1.4
O=C(C[C@@H]1C[C@@H]2c3cc(NC(=O)C4CCC4)ccc3O[C@@H]2[C@@H](CO)O1)NCC(F)(F)F	2.9	3.0	3.3	1.5
O=C(NC1CCCC1)[C@H]1[C@H](CO)[C@H]2Cn3c(ccc(-c4ccccc4)c3=O)[C@@H]1N2CC1CC1	-0.7	-3.6	-3.2	-2.7
CN(C)C(=O)c1ccc(-c2ccc(C3[C@H]4CNC[C@@H]3N4C(=O)NC3CCCCC3)cc2)cc1 (some centres not stated)	3.0	2.9	8.7	-3.8
Additional results:
SMILES	AF4-AF9 inh	rRNA inh HTS	rRNA inh HTS OD600	rRNA inh HTS RFP
CN(C)C(=O)c1ccc(-c2ccccc2[C@@H]2[C@H](C#N)N(C(=O)C3CCCC3)[C@H]2CO)cc1	-10.5	5.1	4.6	0.1
CN1C(=O)c2cc(NC(=O)c3cccc(F)c3)ccc2OC[C@H]2O[C@H](CC(=O)NCC3CC3)CC[C@H]21	-3.4	1.8	-8.5	-2.0
O=C(Nc1ccccc1)[C@@H]1[C@@H](CO)[C@@H]2Cn3c(cccc3=O)[C@@H]2N1CC1CCOCC1	-1.6	0.4	-3.8	-1.5
CN(C)C(=O)c1cccc(-c2ccccc2[C@H]2[C@@H](CO)N(C(=O)C3CCCC3)[C@H]2C#N)c1	0.8	-0.8	7.2	-1.5
CN(C)C(CNC(=O)c1cccc(S(=O)(=O)N2CCN(c3ccc(F)cc3)CC2)c1)c1ccccc1 (configuration not stated)	15.3	-12.6	-10.2	6.6
Cc1noc(C)c1NC(=O)N(C)C[C@H]1OCCCC[C@@H](C)Oc2ccc(NS(=O)(=O)c3ccc(Cl)cc3)cc2C(=O)N([C@@H](C)CO)C[C@@H]1C	-14.2	2.0	0.3	1.2
C[C@@H]1CCCCO[C@@H](CN(C)Cc2ccc(C(F)(F)F)cc2)[C@@H](C)CN([C@@H](C)CO)C(=O)c2cc(NS(=O)(=O)c3ccccc3)ccc2O1	2.1	2.9	5.4	-1.3
C[C@@H]1CN([C@@H](C)CO)C(=O)Cc2cc(NC(=O)CCN3CCOCC3)ccc2O[C@H]1CN(C)S(C)(=O)=O	-3.9	1.6	1.9	-0.5
O=C1CN(S(=O)(=O)Cc2ccccc2)C[C@H]2[C@H](c3ccc(C#Cc4cccc(F)c4)cc3)[C@H](CO)N12	-2.2	-8.2	-35.1	21.4
O=C(C[C@H]1CC[C@@H](NC(=O)Nc2ccccc2F)[C@@H](CO)O1)NCc1ccc(-c2ccccc2)cc1	-0.3	-44.5	-71.7	-7.3
COCCNC(=O)C[C@H]1C[C@H]2c3cc(NC(=O)COC)ccc3O[C@H]2[C@H](CO)O1	-1.2	-0.1	2.5	-1.6

In a second layout: results already given
> CN(C)C(=O)c1cccc(-c2ccccc2[C@H]2[C@@H](CO)N(C(=O)C3CCCC3)[C@H]2C#N)c1
- AF4-AF9 inh: 0.8
- rRNA inh HTS: -0.8
- rRNA inh HTS OD600: 7.2
- rRNA inh HTS RFP: -1.5
> O=C(Nc1ccccc1)[C@@H]1[C@@H](CO)[C@@H]2Cn3c(cccc3=O)[C@@H]2N1CC1CCOCC1
- AF4-AF9 inh: -1.6
- rRNA inh HTS: 0.4
- rRNA inh HTS OD600: -3.8
- rRNA inh HTS RFP: -1.5
> C[C@@H]1CCCCO[C@@H](CN(C)Cc2ccc(C(F)(F)F)cc2)[C@@H](C)CN([C@@H](C)CO)C(=O)c2cc(NS(=O)(=O)c3ccccc3)ccc2O1
- AF4-AF9 inh: 2.1
- rRNA inh HTS: 2.9
- rRNA inh HTS OD600: 5.4
- rRNA inh HTS RFP: -1.3
> COCCNC(=O)C[C@H]1C[C@H]2c3cc(NC(=O)COC)ccc3O[C@H]2[C@H](CO)O1
- AF4-AF9 inh: -1.2
- rRNA inh HTS: -0.1
- rRNA inh HTS OD600: 2.5
- rRNA inh HTS RFP: -1.6

A portion of the library, so the mix of outcomes need not match the whole.
